Screening data: PubChem, several laboratories
WNV NS2B-NS3 inh – inhibitors of West Nile virus NS2B-NS3 protease | P06935 | WNV NS2B-NS3 protease, fluorogenic substrate Ex360/Em465; active compounds read low | z-score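 (tested at a level between 10 and 100 µM)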 | 65,000 compounds, 0.18% hits;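 active = z-score at -3 or under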;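 also: score is relative to mean and spread of the compound wells of a plate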
Target sequence (P06935 1371-1501 limits assumed): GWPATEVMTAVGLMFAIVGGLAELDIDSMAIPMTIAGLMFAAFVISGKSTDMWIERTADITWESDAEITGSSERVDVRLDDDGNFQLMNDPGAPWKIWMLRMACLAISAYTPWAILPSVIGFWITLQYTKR
Target sequence (P06935 1502-1679 limits assumed): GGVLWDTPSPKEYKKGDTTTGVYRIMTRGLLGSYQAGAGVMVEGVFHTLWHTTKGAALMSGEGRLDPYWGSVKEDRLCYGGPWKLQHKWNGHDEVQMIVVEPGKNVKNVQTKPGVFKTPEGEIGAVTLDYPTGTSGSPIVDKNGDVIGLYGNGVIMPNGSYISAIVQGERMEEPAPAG
MT1-MMP promoter – MT1-MMP gene expression reporter suppression – cell-based, luciferase reporter, luminescence (AID 618) | 87,000 compounds, 0.62% hits | calls from a first round at 10 µM; hits with a dose series show EC50 in µM | MT1-MMP promoter luciferase reporter cells, luminescence;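 active = over half of the reporter light lost at 10 µM or EC50 under 50 µM; inactive = the rest and hits that failed the dose series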;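 also: actives suppress MT1-MMP promoter-driven transcription so potencies describe inhibitors; HT1080 fibrosarcoma cells; overnight exposure; toxic or luciferase-blocking compounds were not removed from the actives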
Hsc70 ATP site – Hsc70 inhibitors, probe displacement, primary screen, biochemical, fluorescence polarization (AID 568) | Hsc70 fluorescence polarization, probe displacement; higher % means a stronger effect; strong numbers were not always called active | displacement, % at 20 µM, or IC50 in µM where a hit was titrated | 83,000 tested, under 10 active;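 active = displacement above 50% without optical interference and an IC50 on retest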;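 also: ATPase domain with a fluorescein-tagged ATP probe; 0% = vehicle and 100% = excess ADP; read after one hour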
An asterisk follows results filed as active; i = inactive.

The opening three compounds, to show the layout:
SMILES	WNV NS2B-NS3 inh	MT1-MMP promoter	Hsc70 ATP site
CCCCC1C(=O)N(c2ccccc2)N(c2ccccc2)C1=O	0.22	i	-0.9%
Cc1cccc(C)c1NC(=O)C1CCCCN1C (stereo unspecified)	0.32	i	-2.8%
CCn1cc(C(=O)O)c(=O)c2cc(F)c(N3CCNCC3)nc21	0.09	i	3.0%

All compounds of this part, repeating the preview:
SMILES	WNV NS2B-NS3 inh	MT1-MMP promoter	Hsc70 ATP site
CCCCC1C(=O)N(c2ccccc2)N(c2ccccc2)C1=O	0.22	i	-0.9%
Cc1cccc(C)c1NC(=O)C1CCCCN1C (stereo unspecified)	0.32	i	-2.8%
CCn1cc(C(=O)O)c(=O)c2cc(F)c(N3CCNCC3)nc21	0.09	i	3.0%
C[C@@H]1C[C@H]2[C@@H]3C[C@H](F)C4=CC(=O)C=C[C@]4(C)[C@@]3(F)[C@@H](O)C[C@]2(C)[C@@]1(O)C(=O)COC(=O)C(C)(C)C	0.57	i	-4.8%
CN(C)CCOc1ccccc1Cc1ccccc1	0.49	i	-4.8%
CCCCOc1ccc(CC(=O)NO)cc1	0.18	i	2.0%

Part of the list above with just WNV NS2B-NS3 inh.
Compound	WNV NS2B-NS3 inh
Cc1cccc(C)c1NC(=O)C1CCCCN1C (stereo unspecified)	0.32
CCn1cc(C(=O)O)c(=O)c2cc(F)c(N3CCNCC3)nc21	0.09
C[C@@H]1C[C@H]2[C@@H]3C[C@H](F)C4=CC(=O)C=C[C@]4(C)[C@@]3(F)[C@@H](O)C[C@]2(C)[C@@]1(O)C(=O)COC(=O)C(C)(C)C	0.57

These rows are one share of the data; count on the stated rates, not on these rows.
